StopGo FLuc: FMDV 2A StopGo reporter, firefly signal | Potency, µM (top dose mostly 57.5 µM), for the others: at the top dose signal change, negative = less light | HEK cells with a luciferase reporter of 2A StopGo recoding | 120,000 tested, 0.23% active | AID 1745856; active = well fitted falling curve with a large enough effect; inconclusive = small, poorly fitted or top-dose-only effect; inactive = no such curve, though single readings can be large or run the other way; also: nearly all actives have a fitted effect of over 60% in size; overnight with compound
StopGo RLuc: FMDV 2A StopGo reporter, Renilla signal. HEK cells with a luciferase reporter of 2A StopGo recoding. Potency, µM (highest dose often 57.5 µM), inactives show at the top dose signal change, negative = less light. 120,000 tested, 0.32% active; active means well fitted falling curve with a large enough effect; inconclusive means small, poorly fitted or top-dose-only effect; inactive means no such curve, though single readings can be large or run the other way; also: nearly all actives have a fitted effect of over 55% in size; overnight with compound
* = called active by the depositor; ? = inconclusive; & = joins results of further samples; [ ] = another dose, or the depositor's remark. % is scaled to controls: 0 for no effect and ±100 for the full control effect; potency is read from the fitted curve at half-maximal effect. These rows are one share of the data (hit frequency here may not be typical).

SMILES	StopGo FLuc	StopGo RLuc
COc1ccc(CCN2C(=O)NC(NS(=O)(=O)c3ccc(NC(C)=O)cc3)(C(F)(F)F)C2=O)cc1OC (stereo not given)	-15%	-14%
COC(=O)c1cc(-c2nc3ccccc3[nH]2)c(-c2ccc(OC)cc2)nc1C	19%	-7%
COc1ccc2oc(-c3ccccc3C)cc(=O)c2c1	223%[activator]	305%[activator]
Cc1ccc(NC(=O)/C(C#N)=C\c2ccc(Cl)cc2Cl)cc1C	28%	18%
COc1cc(OC)c(NC(=O)COc2ccccc2-c2nnc(-c3ccccc3)o2)cc1Cl	5%	2%
COc1cc2c(cc1OC)CN(CC(=O)N1N=C(c3cccs3)CC1c1cccs1)CC2 (stereo not given)	-13%	-10%
O=C(CSc1nnnn1Cc1ccccc1)N1CCN(S(=O)(=O)c2ccc3c(c2)CCC3)CC1	-3%	-3%
N#CCOc1ccc(C(=O)/C=C/c2cccc(Br)c2)cc1	36%[activator]	13%
CCOc1ccc(-c2nc(CSCC(=O)NCC(OC)OC)c(C)o2)cc1	-16%	14%
COc1ccccc1NC(=O)CC1SC(c2cc3ccccc3oc2=O)=NC1=O (stereo not given)	-3%	?
Cc1ccc(Cl)cc1N1CCN(C(=O)CN2C(=O)COc3ccc(S(=O)(=O)N4CCCCCC4)cc32)CC1	-1%	-12%
Cc1cc(Cl)ccc1NC(=O)Cn1cnc2c1c(=O)n(C)c(=O)n2C	46%[activator]	0%
O=C(CCC(=O)c1ccc2c(c1)OCCCO2)OCc1ccccc1Cl	13%	8%
O=C(NCc1ccc(C(=O)N2CCCCC2)cc1)c1cccc(C(F)(F)F)c1	-16%	3%
COc1ccc(NC(=O)Cn2c(=O)nc(-c3ccccc3)c3ccccc32)cc1OC	0%	-11%
COC(=O)c1ccc(C)c(NC(=O)Cc2ccc(OC)cc2OC)c1	3%	-1%
Cc1cc(C)c(OCC(=O)N(Cc2cccc(F)c2)Cc2ccco2)c(C)c1	-26%	48%[activator]
C=CCNc1nc(C(=O)OCC(=O)NCC(=O)Nc2c(C)cc(C)cc2C)cs1	0%	19%
CCOc1ccc(NC(=O)Nc2cccc(C)n2)cc1	184%[activator]	5%
CC(C)NC[C@@H](O)c1ccc(NS(C)(=O)=O)cc1	11%	-1%
C[C@H](NC(=O)NCCc1ccccc1F)C(=O)O	-3%	-5%
O=S(=O)(c1ccccc1)c1nc(-c2ccc(F)cc2)oc1N1CCOCC1	8%&-19%	19%&-10%
O=C(CNc1nc(Cl)nc2nc[nH]c12)NCCc1c[nH]c2ccccc12	-10%	-11%
O=C(Cn1c(=O)n(CCc2ccccc2)c(=O)c2sccc21)c1ccccc1Cl	115%[activator]	57%[activator]
COC(=O)[C@@H](N)Cc1ccc(O)c(O)c1	-11%	-6%

3 records picked at random from those above, as already listed:
SMILES	StopGo FLuc	StopGo RLuc
COc1ccc2oc(-c3ccccc3C)cc(=O)c2c1	223%[activator]	305%[activator]
Cc1cc(Cl)ccc1NC(=O)Cn1cnc2c1c(=O)n(C)c(=O)n2C	46%[activator]	0%
COc1ccccc1NC(=O)CC1SC(c2cc3ccccc3oc2=O)=NC1=O (stereo not given)	-3%	?

Other structures follow:
SMILES	StopGo FLuc	StopGo RLuc
CCOCCCNC(=O)c1ccc(-c2nc(CS(=O)(=O)c3ccccc3)c(C)o2)cc1	14%	-2%
COc1cccc(CNC(=O)C(=O)NCC(c2cccs2)S(=O)(=O)c2cccs2)c1 (stereo not given)	-31%	22%
CC(CC(=O)O)c1ccc(C(F)(F)F)cc1 (stereo not given)	0%	0%
Cc1ccc(CC(=O)NCc2cccs2)cc1	126%[activator]	-4%[1.06 µM]
C=C(C)COc1ccc2c(C)c(CCC(=O)N3CCC(C(N)=O)CC3)c(=O)oc2c1	36%[activator]	10%
CCOC(=O)C1=C(c2ccccc2)N=C2SCC(=O)N2C1c1cccc(OC)c1OC (stereo not given)	6%	2%
CN(C)CCN(Cc1ccccc1)S(=O)(=O)c1ccc(-c2cc(C(F)(F)F)on2)s1	?	?
Cc1cc(C)cc(NC(=O)C2CCN(c3nnc(-n4c(C)ccc4C)s3)CC2)c1	22%	-3%
COc1ccc(CNCC#Cc2ccc(C(F)(F)F)cc2)c(OC)c1	-5%	4%
Cc1ccc(Nc2c(-c3cccs3)nc3nc(C)cc(C)n23)cc1	109%[activator]	15%
COc1ccccc1N1C(=O)NC(NC(=O)c2ccccc2Cl)(C(F)(F)F)C1=O (stereo not given)	-2%	3%
COc1ccc2cc3cc(C(=O)N4CCN(c5ccccc5F)CC4)oc3nc2c1	-11%	-11%
CC(NC(=O)CNC(=O)OCc1ccccc1)C(N)=O (stereo not given)	-11%	-7%
O=C(CSC1=Nc2ccccc2C2=NC(CCC(=O)NC3CCCCC3)C(=O)N12)Nc1cccc(C(F)(F)F)c1 (stereo not given)	-19%	13%
COc1cccc(NC(=O)CSC2=Nc3ccccc3C3=NC(CC(=O)NCc4cccs4)C(=O)N23)c1 (stereo not given)	0%	-12%
O=C(CSC1CCCC1)NCc1cccs1	116%[activator]	17%
Cc1ccccc1-n1nnnc1SCC(=O)N(Cc1ccco1)C1=CCCCC1	-10%	36%[activator]
Cn1cc(C(=O)NCCc2ccc(Cl)cc2)c(=O)c2cc(S(=O)(=O)N3CCOCC3)ccc21	-13%	-5%
COc1cccc2c1Oc1ncccc1N(c1ccc(C(=O)NCc3cccc(C)c3)s1)C2	8%	8%
CCc1[nH]c(C(=O)OC(C)C(=O)NC2CC2)c(C)c1C(=O)OC (stereo not given)	0%	3%
CC(NC(=O)c1cc(C2CC2)nc2ccccc12)c1ccccc1 (stereo not given)	-12%	34%[activator]
Cc1ccc(NC(=O)CCS(=O)(=O)c2cc3c4c(c2)CCN4C(=O)CC3)c(C)c1	-15%	-10%
COc1ccc(C2CCCN2C(=O)c2csc(-c3ccccc3)n2)cc1 (stereo not given)	0%	51%[activator]
Cc1cc2nc3c(=O)n(C)c(=O)n(C)c3nc2cc1N=CN(C)C	-6%	-13%
CCCCS(=O)(=O)/C=C/C1C2C=CC(C2)C1S(=O)(=O)CCCC (stereo not given)	182%[activator]	13%

Given with each value named: 4 of the compounds above
mol: O=C(CSC1CCCC1)NCc1cccs1
  StopGo FLuc: 116%[activator] | StopGo RLuc: 17%
mol: CC(CC(=O)O)c1ccc(C(F)(F)F)cc1 (stereo not given)
  StopGo FLuc: 0% | StopGo RLuc: 0%
mol: COc1cccc2c1Oc1ncccc1N(c1ccc(C(=O)NCc3cccc(C)c3)s1)C2
  StopGo FLuc: 8% | StopGo RLuc: 8%
mol: Cc1ccc(CC(=O)NCc2cccs2)cc1
  StopGo FLuc: 126%[activator] | StopGo RLuc: -4%[1.06 µM]

Remaining list, next part.
SMILES	StopGo FLuc	StopGo RLuc
Cc1cc2c(cc1C)NC(CC(=O)Nc1cccc(C)c1C)C(=O)N2 (stereo not given)	96%[activator]	-10%
CNC(=O)Cn1c(=O)c2cccn2c2ccc(F)cc21	7%	-11%
CCOc1ccccc1CN1CCc2nc(Nc3ccc4c(c3)OCCO4)ncc2C1	35%[activator]	-12%
Cc1cccc(C(=O)NCC(=O)OCc2cc(=O)n3nc(CC(C)C)sc3n2)c1	11%	7%
Cc1nnc(NC(=O)c2c(-c3ccccc3)noc2C)s1	17%	5%
CC(C)CCNC(=O)c1ccc(Cn2c(SCC(=O)NC(C)C)nc3ccccc3c2=O)cc1	2%	0%
O=C(Nc1ccccc1C(=O)O)c1cc[n+]([O-])cc1	?	5%
COc1ccc(OC)c(CNC(=O)c2nn(C)c3c2CS(=O)(=O)c2ccccc2-3)c1	-14%	-2%
C1CCN(c2nc(NNc3nc(N4CCCCC4)nc(N4CCCCC4)n3)nc(N3CCCCC3)n2)CC1	-9%	-10%
CCCCn1nc(C(=O)NCc2ccc(C(=O)O)cc2)c2ccccc2c1=O	21%	18%
COc1cccc2sc(N(Cc3cccnc3)C(=O)c3ccc4c(c3)OCCO4)nc12	-4%	4%
COC(=O)c1cc2oc(C)cc2n1Cc1ccc(Br)cc1F	0%	-7%
CCCCNC(=O)CN1CCN(Cc2nc3ccccc3o2)CC1	18%	-8%
CN(Cc1ccccc1)C(=O)c1ccc(CSc2nc3cccnc3n2Cc2ccccc2)cc1	?	-11%
CCCN(CCC)CCCNC(=O)C1CCN(S(=O)(=O)c2cccc3nsnc23)CC1	0%	-14%
COc1cccc(CNC(=O)CC2CCN(C(=O)c3ccc4nc(-c5ccccc5)oc4c3)CC2)c1	7%	?
Cn1ccc(NC(=O)CCc2nc(-c3ccccc3)no2)n1	18%	-7%
CC(Sc1nnc(-c2c[nH]c3ccccc23)o1)C(=O)N1CCNC1=O (stereo not given)	151%[activator]	-7%
Cc1cc2[nH]c(=O)c(=O)[nH]c2cc1S(=O)(=O)Nc1cccc(C(F)(F)F)c1	-10%	8%
CN1CCN(CCNC(=O)c2cnn(-c3ccc(Cl)cc3)c2C2CCN(C(=O)OC(C)(C)C)CC2)CC1	-15%	-8%
COc1ccc(-c2cc3ccc(OCC(=O)OC(C)(C)C)cc3oc2=O)cc1OC	?	?
COc1cc(C(=O)NCCCc2nc3ccccc3n2CC(C)C)cc(OC)c1OC	-10%	-9%
Cc1ncsc1C(=O)/C=C/c1cccs1	82%[activator]	40%[activator]
COc1ccccc1-c1nnc(SCC(=O)Nc2ccccc2F)o1	228%[activator]	7%
O=C(Nc1ccccc1)c1cc(-c2ccco2)nc2ccccc12	4%	-4%
(continued)
SMILES	StopGo FLuc	StopGo RLuc
CCCCn1nc(C(=O)Nc2cccc(C#N)c2)c2ccccc2c1=O	2%	-2%
O=c1cc2nc(-c3ccccc3)nc(SCc3cccc(Br)c3)n2[nH]1	-5%	47%[activator]
C#CCOC(C(=O)OCCN(C)C)(c1ccccc1)c1ccccc1	-20%[11.5 µM]	-6%
Cc1ccc(CNC(=O)CCCn2nc(C)c3c(C)n(-c4ccccc4)nc3c2=O)cc1	-10%	-8%
O=C(Nc1ccc2oc(-c3cccnc3)nc2c1)c1cc(Cl)ccc1Cl	8%	-15%
Cc1nc(NC(=O)CNC(=O)c2ccoc2)sc1C	0%	8%
NC(=S)N/N=C1\CCCC\C1=C/c1ccco1	14%	-1%
CCCCc1nc(Cl)c(CO)n1Cc1ccc(-c2ccccc2-c2nn[nH]n2)cc1	-4%	-12%
Cc1c(C(=O)Nc2ccc(F)c(Cl)c2)oc2ccc(S(=O)(=O)N(C)C3CCCCC3)cc12	-7%	-6%
Cc1ccc(C)c(Cn2c3ccccc3c3cnn(CC(=O)NC(C)c4ccccc4)c(=O)c32)c1 (stereo not given)	-7%	?
Cc1nc(NCc2ccccc2)sc1C(=O)NCCC(C)C	66%[activator]	5%
CCN(CC)Cc1ccc(CNC(=O)c2cnn(-c3ccccc3)c2)cc1	-2%	-14%
O=C(NC1CCCc2ccccc21)c1cccs1 (stereo not given)	21%	53%[activator]
S=C(NCc1cccnc1)NC1CC1	13%	11%
O=C(c1ccc2c(c1)N(Cc1ccc(F)cc1)C(=O)c1ccccc1S2(=O)=O)N1CCN(Cc2ccccc2)CC1	-12%	18%
CCOC(=O)c1c(C)[nH]c(C)c1S(=O)(=O)NCC(=O)Nc1cccc(C(F)(F)F)c1	-29%	40%[activator]
O=C(O)c1cnc[nH]1	6%	8%
O=C(c1ccc(OCc2cn3ccccc3n2)cc1)N1CCN(c2ccc(O)cc2)CC1	-27%	?
CCC(C)Nc1nc(-c2ccc([N+](=O)[O-])cc2)c(C(=O)Nc2ccccc2)s1 (stereo not given)	35%[activator]	-19%
COc1cccc(-c2csc(-c3nc(-c4ccc(C)cc4)c(C)s3)n2)c1	?	3%
Cc1cccc2c(C(=O)O)cc(-c3ccccc3)nc12	1%	-2%
COc1cc(/C=C(/C#N)c2nc3ccccc3[nH]2)ccc1OCc1ccccc1	0%	2%
CCc1nnc(NC(=O)CN2CCN(c3cccc(C)c3C)CC2)s1	6%	3%
CC(C)n1ncc2cc(C(=O)NCc3ccccc3OC(F)(F)F)cnc21	60%[activator]	6%
O=C(COc1ccc(Cl)cc1)OCc1cc(=O)n2nc(C3CCCCC3)sc2n1	-9%	-8%

Three compounds out of the list, sorted by count of non-hydrogen atoms, ascending.
SMILES	StopGo FLuc	StopGo RLuc
O=c1cc2nc(-c3ccccc3)nc(SCc3cccc(Br)c3)n2[nH]1	-5%	47%[activator]
CCN(CC)Cc1ccc(CNC(=O)c2cnn(-c3ccccc3)c2)cc1	-2%	-14%
CCCCc1nc(Cl)c(CO)n1Cc1ccc(-c2ccccc2-c2nn[nH]n2)cc1	-4%	-12%

(listing goes on)
SMILES	StopGo FLuc	StopGo RLuc
CC(C)NC(=O)Nc1ccc(CNC(=O)c2nccnc2N)cc1	7%	45%[activator]
O=C(Nc1ccccc1)c1cc2cc(Cl)ccc2[nH]1	207%[activator]	34%[activator]
CC(C)(C)C(=O)/C(C#N)=C/c1ccccc1OCc1ccc(Cl)cc1	201%[activator]	12%
Nc1ccc(C(F)(F)F)c(C(F)(F)F)c1	1%	7%
Cc1c2c(=O)n(-c3ccc(Cl)cc3)[nH]c2cc(=O)n1Cc1ccc(Cl)cc1	10%	-3%
COc1ccc2nc(-n3ncc4c3NC(=O)CC4c3cccc(O)c3)sc2c1 (stereo not given)	4%	8%
COc1cccc(-n2c(SCC(=O)Nc3c(C)cc(C)cc3C)nc3c([nH]c4ccccc43)c2=O)c1	-24%	-36%
COc1cc(OC)c(NC(=O)c2c(C)oc3ncnc(N4CCCCC4)c23)cc1Cl	0%	-4%
Cc1oc(-c2cccc(Cl)c2)nc1CS(=O)(=O)CC(=O)NC(C)CCc1ccccc1 (stereo not given)	-8%	-2%
COc1cccc(NC(=O)N2CCC(N(C)S(C)(=O)=O)CC2)c1	0%	-3%
O=c1cc(-c2ccccc2)n2c(SCc3ccccc3)nnc2[nH]1	17%&-25%	2%&-8%
CCN(CC)c1cc(C)c2cc(NC(=O)c3ccc(OC)c(OC)c3)ccc2n1	-19%	-7%
OCCCCCCCCCCCN1CCCCC1	-4%	-10%
O=S(=O)(NCc1ccccc1Cn1cccn1)c1ccccc1C(F)(F)F	0%	127%[activator]
